ClpP mod: qHTS Assay for Activators of ClpP; Potency, µM (top dose mostly 57.5 µM), for inactives: top-dose activity change, negative = active; 1.9% of 340,000 active; purified B. subtilis ClpP, FRET peptide cleavage, 20 min; ATP-dependent Clp protease proteolytic subunit (Bacillus subtilis (strain 168)), P80244; active = well fitted falling curve with a large enough effect; inconclusive = small, poorly fitted or top-dose-only effect; inactive = no such curve, though single readings can be large or run the other way; further: potency means the concentration at half of the fitted maximal effect; the source files actives as falling curves though it sought activators and does not explain the sign; nearly all actives have a fitted effect of over 65% in size; many hits overshoot -100%
Target sequence (P80244 whole entry, looked up): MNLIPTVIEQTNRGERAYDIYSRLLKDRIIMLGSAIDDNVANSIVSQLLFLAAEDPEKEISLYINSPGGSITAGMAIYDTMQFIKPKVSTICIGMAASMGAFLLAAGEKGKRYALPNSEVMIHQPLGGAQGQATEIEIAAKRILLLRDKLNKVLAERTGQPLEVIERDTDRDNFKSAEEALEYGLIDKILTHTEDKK
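FRET quenching reversal measured ClpP activation: 10 microg/mL B. subtilis ClpP at pH 8 with the FRET-FV decapeptide, read at 430 nm after 320 nm excitation. The 20-min minus 0-min signal was scaled between DMSO/no-enzyme wells and ADEP (5.8 microM final).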
TRPML1 agonist: qHTS for Agonists of the Human Mucolipin Transient Receptor Potential 1 (TRPML1). AID 624414, 2012. TRPML1-expressing cells, Ca2+ dye fluorescence, FDSS; host cell line not named in the record; reference of the full effect not given here. 0.12% of 410,000 active. activation, % (test concentration not listed). Mucolipin-1 (Homo sapiens), Q9GZU1; in the data active = activation above about 50%; inconclusive = about 30% to 50%; inactive = below about 30%; further: 0% is about no effect; the text of the record puts the active cut at 80%
Target sequence (Q9GZU1 whole entry, looked up): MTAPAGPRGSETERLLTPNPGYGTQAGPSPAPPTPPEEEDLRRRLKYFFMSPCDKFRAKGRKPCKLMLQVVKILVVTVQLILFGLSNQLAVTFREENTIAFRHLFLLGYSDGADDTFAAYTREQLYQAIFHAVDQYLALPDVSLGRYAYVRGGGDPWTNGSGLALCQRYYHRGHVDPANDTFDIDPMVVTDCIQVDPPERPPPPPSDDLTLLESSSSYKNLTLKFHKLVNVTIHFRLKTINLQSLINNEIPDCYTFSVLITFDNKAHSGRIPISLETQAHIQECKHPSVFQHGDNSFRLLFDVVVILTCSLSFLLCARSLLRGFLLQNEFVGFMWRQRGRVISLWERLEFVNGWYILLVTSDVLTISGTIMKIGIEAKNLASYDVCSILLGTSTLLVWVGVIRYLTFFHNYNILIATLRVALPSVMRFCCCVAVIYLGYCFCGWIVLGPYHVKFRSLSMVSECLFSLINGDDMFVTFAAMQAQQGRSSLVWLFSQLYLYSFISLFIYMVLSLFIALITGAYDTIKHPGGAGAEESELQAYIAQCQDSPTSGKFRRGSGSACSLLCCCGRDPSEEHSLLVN
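Calcium fluorescence on an FDSS kinetic reader gave the read-out. Tet-induced TRPML1-DL cells were plated overnight, dye-loaded (Ca8 with quencher, 45-90 min, room temperature, dark), then read 110 s after compound addition, and again 110 s after 4uM final 54-4 (EC80).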
The depositor's hits bear a star; ? = inconclusive.

The opening four entries (preview)
SMILES	ClpP mod	TRPML1 agonist
COc1ccc(CN2Cc3cc(-c4ccccc4)ccc3-n3nncc3C2)cc1	-0.8%	-0.2
O=c1[nH]c2ccccc2n1C1CCN(Cc2ccc(-c3nc4ccccc4nc3-c3ccccc3)cc2)CC1	?	0.1
CSCCC(c1nnnn1C1CCCCC1)N1CCC2(CC1)C(=O)NCN2c1ccccc1 (configuration not stated)	-2.6%	-0.5
Cc1cccc(C)c1-n1nnnc1C(c1cccc2ccccc12)N1CCC2(CC1)C(=O)NCN2c1ccccc1 (configuration not stated)	0.5%	-0.1

The whole of this part, previewed entries included:
SMILES	ClpP mod	TRPML1 agonist
COc1ccc(CN2Cc3cc(-c4ccccc4)ccc3-n3nncc3C2)cc1	-0.8%	-0.2
O=c1[nH]c2ccccc2n1C1CCN(Cc2ccc(-c3nc4ccccc4nc3-c3ccccc3)cc2)CC1	?	0.1
CSCCC(c1nnnn1C1CCCCC1)N1CCC2(CC1)C(=O)NCN2c1ccccc1 (configuration not stated)	-2.6%	-0.5
Cc1cccc(C)c1-n1nnnc1C(c1cccc2ccccc12)N1CCC2(CC1)C(=O)NCN2c1ccccc1 (configuration not stated)	0.5%	-0.1
Cc1ccc(C(=O)CN2CCOCC2)cc1	-0.5%	-0.8
c1ccc2oc(-c3ccc4c(c3)CNCc3cnnn3-4)cc2c1	5.4%	-0.1
CCOC(=O)[C@]12Cc3cc(OC)ccc3[C@H]1N(C(C)C)C(=O)c1ccccc12	1.1%	-1.1
CCOC(=O)[C@]12Cc3cc(OC)ccc3[C@H]1N(C)C(=O)c1ccccc12	1.1%	-0.4
Cc1ccccc1-c1ccc2c(c1)CNCc1cnnn1-2	-2.6%	-0.7
CCOC(=O)[C@]12Cc3ccccc3[C@H]1N(C(C)C)C(=O)c1ccccc12	-0.4%	-1.2
CCOC(=O)[C@]12Cc3cc(Cl)ccc3[C@H]1N(C(C)C)C(=O)c1ccccc12	-2.7%	-0.7
CCOC(=O)[C@]12Cc3cc(C)ccc3[C@H]1N(CCC(=O)OC)C(=O)c1ccccc12	-1.8%	-1.1
NCC(=O)c1cccc([N+](=O)[O-])c1	-2.8%	-0.2
C=CCN1C(=O)C2(C(C(=O)OC)=C(N)Oc3c2c(=O)oc2ccccc32)c2ccccc21 (configuration not stated)	-4.2%	-0.5
COc1ccc(-c2ccc3c(c2)CNCc2cnnn2-3)cc1	4.5%	-0.4
O=P1(c2ccccc2)CC=CC1	2.7%	-0.7
O=c1[nH]c2ccccc2n1C1CCN(C(CCc2ccccc2)c2nnnn2-c2ccc3c(c2)OCCO3)CC1 (configuration not stated)	0.5%	-0.3
COc1cccc(C(c2nnnn2C2CCCCC2)N2CCC3(CC2)C(=O)NCN3c2ccccc2)c1OC (configuration not stated)	0.6%	-0.5
O=C1NCN(c2ccccc2)C12CCN(C(c1cccc3ccccc13)c1nnnn1Cc1ccccc1)CC2 (configuration not stated)	-6.0%	-0.5
Fc1cccc(-c2ccc3c(c2)CNCc2cnnn2-3)c1	-24.1%	0.0
CCC(c1nnnn1Cc1ccccc1)N1CCC(n2c(=O)[nH]c3ccccc32)CC1 (configuration not stated)	1.2%	-0.3
NC(Cc1ccc(Cl)cc1)c1csc(Nc2ncccn2)n1 (configuration not stated)	0.7%	0.5
O=C1c2ccccc2-n2nnnc2C2c3ccccc3-n3nncc3CN12 (configuration not stated)	0.5%	-0.4
O=C(CCc1ccccc1)N1Cc2cc(N3CCOCC3)ccc2-n2nncc2C1	-12.8%	-0.5
Cc1nc2cc(OC(=O)N(C)Cc3cccc(-c4ccncc4)c3)ccc2s1	0.7%	-1.1

Reformatted as labelled records: part of the list above.
> O=C1c2ccccc2-n2nnnc2C2c3ccccc3-n3nncc3CN12 (configuration not stated)
- ClpP mod: 0.5%
- TRPML1 agonist: -0.4

> O=C(CCc1ccccc1)N1Cc2cc(N3CCOCC3)ccc2-n2nncc2C1
- ClpP mod: -12.8%
- TRPML1 agonist: -0.5

Nothing new here: two of the compounds above.
SMILES	ClpP mod	TRPML1 agonist
COc1ccc(CN2Cc3cc(-c4ccccc4)ccc3-n3nncc3C2)cc1	-0.8%	-0.2
O=c1[nH]c2ccccc2n1C1CCN(Cc2ccc(-c3nc4ccccc4nc3-c3ccccc3)cc2)CC1	?	0.1

Continued:
SMILES	ClpP mod	TRPML1 agonist
O=C1NCN(c2ccccc2)C12CCN(C(c1cccc3ccccc13)c1nnnn1C1CCCCC1)CC2 (configuration not stated)	-2.5%	-0.3
CSCCC(c1nnnn1C1CCCC1)N1CCC2(CC1)C(=O)NCN2c1ccccc1 (configuration not stated)	0.0%	-0.3
O=P(OC1=CCCCC1)(c1ccccc1)c1ccccc1	-2.6%	-1.4
CCCCn1nnnc1C(CCc1ccccc1)N1CCC(n2c(=O)[nH]c3ccccc32)CC1 (configuration not stated)	1.9%	-0.4
CCOC(=O)CNC(=O)N1Cc2cc(-c3ccccc3)ccc2-n2nncc2C1	-2.1%	-0.7
CC1(C)N([O])C(c2ccc(C(=O)O)cc2)=[N+]([O-])C1(C)C	0.5%	-0.7
ClCCN(CCCl)c1ccc(/C=C/c2sc3ccccc3[n+]2CCCCI)cc1	3.8%	19.9
CCC(c1nnnn1C1CCCCC1)N1CCC2(CC1)C(=O)NCN2c1ccccc1 (configuration not stated)	-3.8%	0.8
COc1ccc(-n2nnnc2C(c2cccc3ccccc23)N2CCC3(CC2)C(=O)NCN3c2ccccc2)cc1 (configuration not stated)	-11.7%	0.0
O=C1NCN(c2ccccc2)C12CCN(C(c1ccccc1)c1nnnn1C1CCCC1)CC2 (configuration not stated)	-1.5%	-0.3
C[C@H]1COc2cccc(N3CCN(C)CC3)c2S(=O)(=O)N1	-3.0%	0.0
COc1ccc(C(c2nnnn2C(C)(C)C)N2CCC3(CC2)C(=O)NCN3c2ccccc2)cc1 (configuration not stated)	0.2%	-0.3
O=C(NC1CCCCC1)N1Cc2cc(-c3ccccc3)ccc2-n2nncc2C1	16.1%	-0.4
CC(C)(C)n1nnnc1C(c1ccccc1)N1CCC2(CC1)C(=O)NCN2c1ccccc1 (configuration not stated)	-0.3%	-0.9
CSCCC(c1nnnn1-c1ccc2c(c1)OCCO2)N1CCC2(CC1)C(=O)NCN2c1ccccc1 (configuration not stated)	-9.7%	-0.1
Clc1cccc(N2Cc3cc(N4CCOCC4)ccc3-n3nncc3C2)c1	-9.4%	-0.8
CCOC(=O)[C@]12Cc3cc(OC)ccc3[C@H]1N(CCC(=O)OC)C(=O)c1cc(OC)ccc12	0.4%	-0.9
CC(C)CN1Cc2cc(N3CCCCC3)ccc2-n2nncc2C1	-8.1%	-0.7
CCCCn1nnnc1C(c1cccc2ccccc12)N1CCC2(CC1)C(=O)NCN2c1ccccc1 (configuration not stated)	-19.9%	0.6
COc1cc2nc(N3CCCN(C)CC3)nc(N(C)C3CCN(C)CC3)c2cc1OC	4.3%	-0.1
O=C1c2ccccc2-n2nnc(-c3ccccc3)c2C2c3cc(Br)ccc3CCN12 (configuration not stated)	-0.6%	-0.3
O=[N+]([O-])c1ccc(Cl)c(Cl)c1	0.4%	0.3
C=CCNC(=S)N1Cc2cc(Br)ccc2-n2nncc2C1	1.0%	-0.4
O=C(NCCN1CCC2(CC1)C(=O)NCN2c1cccc(F)c1)c1ccc2ccccc2c1	-0.9%	14.4
O=C(NC1CCCCC1)N1Cc2cc(N3CCOCC3)ccc2-n2nncc2C1	-7.2%	-0.6
Further entries.
SMILES	ClpP mod	TRPML1 agonist
COc1ccc(-n2nnnc2C(c2ccccc2OC(F)(F)F)N2CCC(n3c(=O)[nH]c4ccccc43)CC2)cc1 (configuration not stated)	-4.5%	0.4
O=C(CCl)c1ccc(O)c(O)c1	-0.7%	-0.5
CCOC(=O)[C@]12Cc3c(cc(OC)c(OC)c3OC)[C@H]1N(CCC(=O)OC)C(=O)c1ccccc12	-1.1%	-0.4
CCOC(=O)[C@]12Cc3cc(C)ccc3[C@H]1N(C1CCCCC1)C(=O)c1ccccc12	-0.9%	3.6
O=C1NCN(c2ccccc2)C12CCN(C(c1cccs1)c1nnnn1C1CCCC1)CC2 (configuration not stated)	-0.6%	-0.8
CC(C)C[C@H]1COc2cccc(N3CCN(C)CC3)c2S(=O)(=O)N1	-5.9%	-0.6
O=c1[nH]c2ccccc2n1C1CCN(C(c2nnnn2Cc2ccccc2)C2CC2)CC1 (configuration not stated)	-0.7%	-0.3
NC(Cc1ccc(Cl)cc1)c1csc(Nc2ccccn2)n1 (configuration not stated)	-10.0%	0.5
O=C1NCN(c2ccccc2)C12CCN(C(c1nnnn1-c1ccc3c(c1)OCCO3)C1CC1)CC2 (configuration not stated)	2.3%	-0.6
COc1ccc(-n2nnnc2C(c2ccccc2)N2CCC3(CC2)C(=O)NCN3c2ccccc2)cc1 (configuration not stated)	-1.8%	-0.3
CCOC(=O)[C@]12Cc3cc4ccccc4cc3[C@H]1N(Cc1ccccc1)C(=O)c1cc(OC)ccc12	-24.3%	0.4
COC12c3ccccc3-c3ccccc3C1C(C(=O)O)C2C(=O)O (configuration not stated)	0.8%	-0.2
COc1ccc(-n2nnnc2C(c2cccc(OC)c2OC)N2CCC(n3c(=O)[nH]c4ccccc43)CC2)cc1 (configuration not stated)	0.3%	-0.1
Cc1cccc(C)c1-n1nnnc1C(CCc1ccccc1)N1CCC2(CC1)C(=O)NCN2c1ccccc1 (configuration not stated)	-6.3%	-0.5
COc1ccc(CN2Cc3cc(N4CCCCC4)ccc3-n3nncc3C2)cc1	-11.7%	-0.8
O=C(CI)c1ccc(Cl)cc1	0.1%	-0.5
COc1ccc(-c2nc3ccc(Br)cn3c2CC(=O)N2CCCC2)cc1OC	-9.5%	-0.4

These rows are one share of the data; the hit share may differ from the screen's.
